# Screening results (PubChem BioAssay)
# TRPV1 potentiator: human TRPV1 potentiation; Q8NER1; TRPV1-expressing cells, Fluo-8 calcium influx, capsaicin EC20 potentiation; host cell line not named in the record; control for the full effect not named in the record; potentiation, % at 8.33 µM; 320,000 tested, 0.02% active; active means potentiation above 80%; inconclusive means 30% to 80%; inactive means below 30%; also: 0% is about no effect
#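 Cells expressing TRPV1 were dye-loaded with Fluo-8 and read kinetically: 10 s baseline, 3 min after compound (agonist portion), then 2 min after EC20 capsaicin (allosteric enhancer portion). Calcium-bound dye fluorescence at 480/520 nm.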
# Six1-Eya2 inh: blocks human Six1 binding to Eya2; Q15475+O00167; AlphaScreen GST-Six1/His-Eya2 binding, biochemical; hits give low values; control for the full effect not named in the record; activity change, % (concentration not given with the values); 360,000 tested, 0.56% active; AID 651725; in the data active = activity change below about -65%; inconclusive = about -30% to -65%; inactive = above about -30%; also: % is scaled to controls: 0 for no effect and ±100 for the full control effect
#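 AlphaScreen luminescence read after one hour at 37 °C in darkness. Pin-transferred compounds met GST-Six1 and His-Eya2 protein (5X stock 250 nM/500 nM) plus glutathione donor and Ni-chelate acceptor beads (5X, 50 ug/mL).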
# CtBP-E1A blk: CtBP/E1A binding inhibition. activity change, % (test concentration not listed). AlphaScreen GST-E1A/His-CtBP binding, 1536-well; hits give low values; control for the full effect not named in the record. 340,000 tested, 0.49% active; in the data active means activity change below about -65%; inconclusive means about -30% to -65%; inactive means above about -30%; also: % is scaled to controls: 0 for no effect and ±100 for the full control effect; compound concentration not given in the record
#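 Protein mix (5X: 125 nM each GST-E1A, His-CtBP) was incubated with pinned compound 2 h at 37 deg C in dark, in 50 mM Tris pH 8.0 buffer with 300 mM NaCl. Glutathione donor and nickel acceptor beads followed; AlphaScreen signal read after 1 h.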
# PINK1 expr mod: modulators of PINK1 expression | PINK1 immunofluorescence, high-content cytometry, 24 h | Potency, µM (series often up to 76.6 µM), without a hit: at the highest dose activation (PINK1 increase), usual class: activators | 410,000 tested, 0.2% active | AID 624263; active = well fitted activation curve with a large enough effect; inconclusive = small, poorly fitted or top-dose-only effect; inactive = flat fitted curve, though single readings scatter; cell line not stated here;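 also: potency is read from the fitted curve at half-maximal effect; % of control where 0% means no effect; nearly all actives have a fitted effect of over 65% in size; a mitochondrial uncoupler was the plate control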
#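 A stable cell line was treated with compounds at 5 concentrations for 24 hours, with CCCP as control. PINK1 levels and mitochondrial localization were measured by immunofluorescence with mitochondrial, cell and nuclear markers after fixation, read by laser-scanning cytometry.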
# Sfp PPTase inh: blocks B. subtilis Sfp PPTase activity; Q9F4F7; Biochemical Sfp PPTase activity, qHTS; Potency, µM, for inactives: max response, negative = inhibition, most hits filed as inhibitors; 310,000 tested, 3.5% active; AID 1490; active = well fitted inhibition curve with a large enough effect; inconclusive = small, poorly fitted or top-dose-only effect, or another doubt; inactive = no such curve, though single readings can be large or run the other way;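 also: the enzyme is Sfp with the accession as filed and its product quenches rhodamine fluorescence; potency is read from the fitted curve at half-maximal effect; 0% = enzyme reaction without inhibitor and -100% = no enzyme wells; top concentration of the series not given in the record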
#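 Fluorescence-quenching assay: 15 nM Sfp-PPTase preincubated 15 min at room temperature with compound, then 5 uM rhodamine-CoA and 12.5 uM BHQ-2-labelled YbbR peptide added. Fluorescence (ex 525/em 598 nm) read at start and after 30 min; difference gives rate.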
# D2 potentiator: potentiates the human D2 dopamine receptor allosterically | P14416 | DiscoveRx D2 beta-arrestin cells, luminescence, 90 min; 100% = 57 uM dopamine signal | potentiation, % (no concentration beside the values) | 360,000 tested, 0.23% active | AID 624464; active = potentiation of 50% or more; inconclusive = 30% to 50%; inactive = 30% or less;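 also: compound concentration not given in the record; tested on top of an EC20 dose of dopamine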
# Target sequence (P14416 whole entry, looked up): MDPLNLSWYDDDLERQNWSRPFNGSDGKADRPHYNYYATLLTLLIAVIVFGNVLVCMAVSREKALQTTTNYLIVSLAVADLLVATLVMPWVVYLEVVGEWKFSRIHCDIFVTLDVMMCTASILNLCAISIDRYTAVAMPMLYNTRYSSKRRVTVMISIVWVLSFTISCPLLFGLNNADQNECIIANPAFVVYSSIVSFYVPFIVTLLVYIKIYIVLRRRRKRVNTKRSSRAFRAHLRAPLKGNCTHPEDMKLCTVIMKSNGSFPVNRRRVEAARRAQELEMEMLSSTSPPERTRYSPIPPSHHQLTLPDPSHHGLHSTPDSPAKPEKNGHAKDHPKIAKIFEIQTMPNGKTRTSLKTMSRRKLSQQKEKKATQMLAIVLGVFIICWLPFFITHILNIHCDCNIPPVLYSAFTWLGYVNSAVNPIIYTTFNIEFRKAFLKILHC
#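 D2 cells co-treated with compound plus 50 nM dopamine (EC20) for 90 min at 37 deg C to detect potentiation. Beta-arrestin recruitment was read as enzyme-fragment luminescence after 1 h at ambient temperature. Full response was set by 57 uM dopamine.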
# D2 agonist: agonists of human D2 dopamine receptor (beta-arrestin) | DiscoveRx PathHunter D2 beta-arrestin, luminescence, 90 min; 100% = 57 uM dopamine signal | P14416 | 360,000 tested, 0.084% active | AID 624465 | activation, % (concentration not given with the values); in the data active = activation above about 40%; inconclusive = about 15% to 40%; inactive = below about 15%; also: compound concentration not given in the record; the text of the record calls up to 30% inactive
#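 DiscoveRx PathHunter D2 beta-arrestin cells (2,100/well) attached overnight, then compound-stimulated 90 min at 37 C in HBSS/10 mM HEPES/0.1% Tween-20 buffer; beta-galactosidase complementation read by luminescence after 1 h at ambient temperature. Dopamine 57 uM final (EC100) as control.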
# * hit, by the source's call; ? = inconclusive; / = not tested or not shown; & = joins results of further samples; [ ] = remark or other dose. An unsorted share of the library. About 3.7% of those tested had a hit in this group.
SMILES	TRPV1 potentiator	CtBP-E1A blk	D2 agonist	PINK1 expr mod	Six1-Eya2 inh	D2 potentiator	Sfp PPTase inh
Cc1ccc(C(c2sc3ncnn3c2O)N2CCCCC2)cc1 (centres undefined)	4.6	-20.8	-4.7	0.0%	0.0	1.3	20.1%
Cc1ccc2c(c1)sc1nc(=O)ccn12	25.3	-4.5	4.2	-0.9%	-4.8	-0.2	12.0%
Fc1ccccc1/C=N/n1c(COc2ccccc2)n[nH]c1=S	?	-0.1	-2.2	5.5%	-6.5	-10.3	56.2µM*
Cc1cc(C)cc(C(=O)N(C)C2CCCN(Cc3ccccc3F)C2)c1 (centres undefined)	-12.7	-6.0	-3.7	0.7%	0.1	-3.2	3.9%
COCc1cc(CN2CCN(CCCc3ccccc3)C(CCO)C2)ccc1OC (centres undefined)	6.7	1.1	-1.6	-1.3%	4.9	-11.9	-2.2%
CC(C)Cc1nnc(NC(=O)CCS(=O)(=O)c2ccc(Cl)cc2)s1	-3.5	-3.2	-0.2	-1.3%	3.2	18.7	1.2%
CCOC(=O)c1nnn2c1nc(N1CCN(C)CC1)c1ccccc12	10.6	-16.3	-3.9	-0.7%	3.6	-2.2	-0.4%
COC(CNC(=O)CN1CCN(Cc2ccc(F)cc2Cl)C1=O)OC	1.6	8.8	-3.4	0.9%	-3.6	1.4	12.6%
CCC(Cc1ccccc1)NC(=O)CCNS(=O)(=O)c1cc(Br)cnc1N (centres undefined)	2.7	-13.0	12.5	0.0%	9.3	-12.3	18.2%
CS(=O)CSc1nc2c(cc1C#N)CCCC2 (centres undefined)	6.1	0.0	0.0	-2.5%[38.3 µM]	4.6	-3.3	-1.5%
Fc1cccc(-c2nnn3c2nc(Cl)c2ccccc23)c1	14.1	0.0	-5.6	-1.5%	-1.7	-9.5	-2.7%
Oc1ccccc1C=NNc1nc2ccccc2s1	/	3.9	-1.2	5.7%	-8.4	-7.8	/
OCC(CO)c1cnnc2ccccc12	/	0.0	-3.7	-2.5%	30.1	-11.1	/
CCN(CC)S(=O)(=O)c1ccc(/C=C/C(=O)Nc2ccc(Br)cc2F)cc1	-3.7	-0.4	5.5	?	0.8	-16.5	22.4%
CCOC(=O)/C=C1/SCC(=O)N1CC(=O)Nc1cccc(F)c1	-12.0	11.1	-3.3	1.3%	1.5	-25.0	/
Cc1ccc(C(=O)NC(=S)Nc2ccccc2N2CCCC2)cc1[N+](=O)[O-]	-4.6	-28.8	-1.0	6.3%	?	-15.5	17.8µM*
CS(=O)(=O)c1ccc(-c2nn[nH]n2)cc1	-4.1	5.8	-5.0	1.4%	5.7	-7.8	17.2%
O=C1CC(C(=O)O)S/C(=N\NC(=O)c2ccc(F)cc2)N1 (centres undefined)	-3.6	-3.9	-1.4	5.6%	-4.4	0.9	?
Cc1nccn1CCOc1ccc(Cl)cc1	3.0	-1.3	4.5	0.2%	-18.4	-9.7	-22.0%
CCc1nc2c(OCC(=O)C(C)(C)C)cccn2c1N(C)C(=O)C1CC1	/	0.5	-2.8	0.2%	4.4	-8.7	/
CCc1noc(C)c1C(=O)Oc1ccc(N(C)S(=O)(=O)c2ccc(C)c(C)c2)cc1	0.2	17.0	-1.0	-0.2%	14.7	-14.1	/
Cc1cc(C(=O)CSc2nnc(-c3cccs3)n2Cc2ccccc2)c(C)n1C	-2.7	-20.4	-2.4	-0.9%	-24.8	-8.8	-22.9%
COc1cc2c(-c3ccc(O)cc3)nc3c(c(C)nn3-c3ccccc3)c2cc1OC	-26.6	2.9	1.5	-2.0%	0.7	19.1	?
Cc1ccc(Sc2ncccc2C(N)=O)cc1	/	-12.4	0.9	3.2%	-2.1	-9.6	/
NC(=O)c1ccc(NC(=O)CSc2nc3ccccc3c(=O)n2CCCN2CCOCC2)cc1	1.7	0.0	2.4	0.6%	18.4	-2.3	/
NC(=O)C1CCN(CC(O)COc2ccc(-c3ccccc3)cc2)CC1 (centres undefined)	11.0	-7.8	10.3	2.3%	5.4	-10.4	17.7%
COc1cc(OC)cc(C(=O)NCCn2ccc3ccccc32)c1	/	1.3	-0.6	-0.6%	-0.7	-7.9	-2.1%
O=C(NC1(O)C(=O)c2ccccc2C1=O)c1ccccc1	7.5	-4.1	-23.4	2.9%	0.7	-45.3	?
O=C(CN(CC1CCCO1)C(=O)CCC(=O)Nc1nccs1)NCC1CCCO1 (centres undefined)	1.0	-6.1	-3.7	4.3%	2.3	-30.7	13.8%
Cc1ccc(Nc2nc(N)nc(CSc3nc4ccccc4s3)n2)cc1	-8.2	11.2	4.3	2.2%	-14.3	-11.1	0.0%
COc1ccccc1S(=O)(=O)N1CCN(S(=O)(=O)c2cccs2)CC1	-3.1	/	-6.4	1.8%	-13.8	-3.0	/
O=C(CCc1c[nH]c2ccccc12)OCc1ccc(Br)cc1	-8.4	-1.6	-2.3	10.9%	-5.5	3.4	1.6%
Cc1cc(NS(=O)(=O)c2ccc(NC(=O)c3ccc(Br)o3)cc2)nc(C)n1	-9.6	-0.1	-2.6	0.1%	-6.7	-0.4	6.7%
N#C/C(=C\c1cccnc1)C(=O)Nc1ccccc1	-0.4	3.5	0.8	3.9%	-3.8	15.4	9.3%
Cc1cc(C(=O)NC2CCCc3c2cnn3-c2ccc(C)c(C)c2)n(C)n1 (centres undefined)	13.6	3.1	4.2	3.8%	9.2	-10.8	-5.1%
O=C(OCc1cc(-c2ccccc2)no1)c1ccc2ccccc2n1	1.3	-4.9	-1.3	0.8%	-1.3	-1.9	-2.2%
CCOc1ccccc1C(=O)Nc1ccccc1C(N)=O	-10.0	1.1	-4.3	2.5%[38.3 µM]	0.5	-9.7	-0.7%
NS(=O)(=O)c1ccc(NC(=O)COC(=O)c2ncc(Cl)c(Cl)c2Cl)cc1	/	6.4	4.5	2.8%	-4.8	-1.7	/
CCCCc1ccc(/C(C)=N/NC(=O)C2CCCC2)cc1	-24.4	6.4	-1.1	7.6%	6.5	-5.3	-2.6%
NS(=O)(=O)c1ccc(NC(=O)CSc2nnc(NC3CC3)s2)cc1	-0.5	4.6	-2.6	1.5%	-4.7	9.9	/
CC(=O)c1nnn(-c2nc(N3CCCC3)nc(N(c3ccccc3)c3ccccc3)n2)c1C	-18.7	9.7&-2.7	-2.9	11.9%[38.3 µM]	-0.3	4.8	10.8%
Cc1noc(C)c1S(=O)(=O)N1CCC(C(=O)Nc2ccc(OC(F)(F)F)cc2)CC1	-16.4	-3.2	2.6	2.1%	10.1	1.6	-0.8%
CC(=O)Nc1ccccc1-c1nn[nH]n1	-0.8	-0.1	-4.1	1.9%	0.0	-4.2	22.8%
CCOc1ccc(-c2nnc(N(CC)C(=O)C3CCC3)s2)cc1	6.0	8.7	0.6	-0.4%	5.5	13.5	39.8µM*
COC(=O)C1=C(C)N(Cc2ccccc2)C(=O)N[C@H]1c1ccc(Br)cc1	-6.0	/	0.8	2.8%	5.8	-5.7	-12.2%&14.9%
O=C(Nc1cccnc1Cl)c1cc2ccccc2o1	-25.9	2.2	4.3	-0.5%	44.8	-2.2	1.5%
CC(Sc1nnnn1-c1ccc(Cl)cc1)C(=O)NCC(=O)Nc1ccc(F)c(F)c1F (centres undefined)	-8.1	6.2	-3.2	3.2%	2.9	-31.6	-9.0%
CCN1CCN(c2ncc(C(=O)N3CCN(c4ccccc4OC)CC3)c3ccccc23)CC1	/	-3.0	0.1	-0.3%	6.1	-14.5	/
CC(C)Oc1ccc(CNC(=O)Cn2c(=O)c3cccn3c3cccnc32)cc1	-30.3	-0.4	-4.6	1.3%	-0.2	4.3	-8.1%
S=C(NC1CCCCC1)c1ccc2c(c1)OCO2	-14.4	-2.4	-4.2	9.0%[38.3 µM]	1.1	-2.9	?
Cn1c(-c2ccc(=O)[nH]c2)nc2ccccc21	6.2	/	1.3	0.3%	7.0	-5.1	17.8µM*
COc1cccc(NC(=O)c2csc3c2CCCC3)c1	3.4	-19.4	0.6	2.0%	11.6	-15.1	-4.6%
Cc1noc(C)c1S(=O)(=O)N1CCCC(C(=O)N2CCN(C3CCCCC3)CC2)C1 (centres undefined)	?	3.7	-4.5	2.2%	1.0	-2.9	8.6%
O=C(Nc1ccc(N2CCCCC2)cc1)c1cccnc1Cl	-25.0	0.0	-3.6	1.2%	0.0	-20.1	-8.7%
FC(F)(F)c1cccc(Cc2noc(CN3CCCC(CN4CCCC4)C3)n2)c1 (centres undefined)	5.2	10.0	-1.4	2.0%	-4.3	-11.2	14.5%
Cc1cc(F)c(F)cc1C(=O)N1CCCC1	2.9	0.9	-3.4	1.4%	3.2	0.8	0.0%
Cc1ccccc1S(=O)(=O)NC(=O)C1(C)CCN1C(=O)C(C)(C)c1ccccc1 (centres undefined)	/	1.5	1.6	0.5%	-0.1	-9.6	/
CCOc1ccc(N(CC(=O)NC2CCCC2)C(=O)CCC(=O)Nc2ccccn2)cc1	9.5	3.4	-2.1	-1.2%	3.9	-7.5	11.4%
COc1ccc(CN2CCNC(=O)C2CC(=O)NCc2cccc(C)n2)c(OC)c1 (centres undefined)	?	3.8	-5.6	2.0%	4.6	-2.9	11.9%
COc1ccc(CNC(=O)NC(C)(C)c2cccc(C(C)(C)NC(=O)NCc3ccc(OC)cc3)c2)cc1	24.4	7.1	-3.7	?	-20.6	-5.0	15.2%
O=c1cc(-c2cccs2)oc2ccc(Cl)cc12	-18.7	-7.8	-3.4	-19.9%[38.3 µM]	-5.3	-15.6	-5.8%
Cc1ccc(CN2CCC(n3nccc3NC(=O)c3ccc4c(c3)OCO4)CC2)o1	3.4	10.8	-5.6	-0.6%	-0.3	-38.6	1.2%
O=C(CC(NC(=O)C(F)(F)F)c1ccccc1)Nc1nnc(CCc2ccccc2)s1 (centres undefined)	-2.2	3.9	-3.8	6.3%	10.8	1.1	17.8µM*
